Screens: PubChem, National Center for Advancing Translational Sciences (NCATS)
TSHR agonist: TSH receptor (human) agonism. 0.48% of 73,000 active. Potency, µM (titrated, usually from 57.1 µM), for inactives: top-dose activation, most hits filed as activators. AID 926. P16473. HEK293-CNG-TSHR cells (CNG channel as cAMP sensor), membrane potential dye, cAMP; active = well fitted activation curve of enough size with the parental cells flat; inconclusive = any curve in the parental cells; inactive = parental cells flat and receptor cells flat or falling; note: potency is the fitted concentration of half-maximal effect; % of control where 0% means no effect; weak receptor curves with flat parental cells got no call and are not listed
Target sequence (P16473 whole entry, looked up): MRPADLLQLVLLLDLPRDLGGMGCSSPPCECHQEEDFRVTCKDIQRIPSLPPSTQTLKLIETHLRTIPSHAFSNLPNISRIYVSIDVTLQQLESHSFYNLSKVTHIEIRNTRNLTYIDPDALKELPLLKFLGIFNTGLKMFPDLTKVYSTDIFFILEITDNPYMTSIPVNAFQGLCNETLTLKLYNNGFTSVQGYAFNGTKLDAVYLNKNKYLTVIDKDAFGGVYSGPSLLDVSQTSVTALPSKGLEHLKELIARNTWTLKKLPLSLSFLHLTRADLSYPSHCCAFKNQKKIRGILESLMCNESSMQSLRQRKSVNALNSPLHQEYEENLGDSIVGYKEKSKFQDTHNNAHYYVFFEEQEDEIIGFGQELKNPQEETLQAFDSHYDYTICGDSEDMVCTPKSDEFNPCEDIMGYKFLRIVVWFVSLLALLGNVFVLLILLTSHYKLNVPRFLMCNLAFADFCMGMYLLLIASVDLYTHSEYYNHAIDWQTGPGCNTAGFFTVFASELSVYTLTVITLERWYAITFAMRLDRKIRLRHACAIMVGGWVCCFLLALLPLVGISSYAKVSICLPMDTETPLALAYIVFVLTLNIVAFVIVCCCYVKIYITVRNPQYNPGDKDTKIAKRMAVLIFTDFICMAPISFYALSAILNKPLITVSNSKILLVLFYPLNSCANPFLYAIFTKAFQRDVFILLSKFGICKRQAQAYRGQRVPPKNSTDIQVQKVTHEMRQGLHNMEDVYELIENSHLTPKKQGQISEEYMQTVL
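HEK 293 cells stably expressing TSHR and a cAMP-gated CNG channel; parental CNG-only cells as counterscreen. Cells preloaded 60 min with membrane potential dye plus 100 uM RO 20-1724, then compound 30 min; fluorescence read at 590 nm.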
A488 fluor: compound autofluorescence in A488 spectral region; compound autofluorescence, A488 spectral region, dye equivalency; hits give high values; max dye equivalency, M; 0.1% of 59,000 active; active = above 10 nM dye equivalent; inconclusive = 1 to 10 nM; inactive = 1 nM or less; about half of its hits are not listed in these tables;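 note: highest value over a series up to 38 µM; compound alone in buffer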
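Spectroscopic profiling in the A488 region: compounds in pH 8.0 Tris (100 mM), 15 min RT, CCD imaging with 480 nm excitation and 540 nm emission; responses normalized against A488 dye standards.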
A647 autofl: A647 region autofluorescence; AID 592; 59,000 tested, under 10 active; Compound fluorescence, A647 channel (570/671 nm), Tris buffer; max dye-equivalent concentration, M; active means above 1 µM dye equivalent; inconclusive means 0.1 to 1 µM; inactive means 0.1 µM or less;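 note: values scaled relative to a standard on each plate; highest value over a series up to 38 µM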
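Each compound's intrinsic fluorescence at 570 nm excitation and 671 nm emission is measured across its concentration series in 100 mM Tris, pH 8.0, after 15 min at room temperature, and reported relative to an A647 curve.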
Resorufin fluor: resorufin region autofluorescence; max dye-equivalent concentration, M; 0.04% of 59,000 active; AID 588; Compound fluorescence, resorufin region 547/598 nm, buffer; hits give high values; active = above 10 nM dye equivalent; inconclusive = 1 to 10 nM; inactive = 1 nM or less; a few of its hits are not listed in these tables; note: highest value over a series up to 38 µM
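Read-out: intrinsic compound fluorescence at ex 547/em 598 nm after 15 min at RT in pH 8.0 Tris (100 mM). Values expressed as resorufin-equivalent concentration from per-plate standard series.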
AID923: qHTS Assay for Allosteric/Competitive Inhibitors of Caspase-1: Spectroscopic Profiling in AFC Spectral Region; AID 923, 2007; compound fluorescence, AFC spectral region (405/520 nm); almost no hit is shown here; Potency, µM (doses to about 57.5 µM), inactives show at the highest dose fluorescence increase, hits mostly activators; 1.1% of 75,000 active; active = well fitted activation curve with a large enough effect; inconclusive = small, poorly fitted or top-dose-only effect;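 note: potency is the fitted concentration of half-maximal effect; 0% is about no effect; scaled to a free AFC standard on each plate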
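Titrations up to 57 uM read every 20 sec for 3 min (405/520 nm) with 50 nM caspase 1 and 5 uM Ac-WEHD-AFC, pH 7.5 HEPES buffer. Fluorescence-vs-time intercept gave baseline, scaled against on-plate AFC standard.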
* marks the source's active call; other numbers are inactive results; i = inactive; ? = inconclusive; nt = no result given; [ ] = dose if it differs, or a comment. Some of the compounds tested; the hit share may differ from the screen's.

SMILES	TSHR agonist	A488 fluor	A647 autofl	Resorufin fluor	AID923
CCCCC(=O)Nc1ccc(C(=O)NCC(=O)OC)cc1	4%	i	2e-08	i	1.6%
CC(=O)Nc1ccc(NC(=O)CN(c2ccccc2Cl)S(C)(=O)=O)cc1	-1%	i	1.2e-08	i	0.0%
Cc1cc(S(=O)(=O)N2CCC(NC(=O)C34CC5CC(CC(C5)C3)C4)CC2)ccc1-n1cnnn1	4%	i	1e-09	i	0.5%
N#CC1=C(N)C(C#N)(C#N)[C@H](c2c(F)cccc2F)[C@H]2CC3(CC=C12)OCCO3	2%	i	1.3e-08	i	9.1%
CC1=C(C(=O)OCC2CCCO2)C(c2ccc(O)cc2)NC(=O)N1 (stereo not drawn)	4%	i	1e-09	i	-1.4%
CC1=C(C(=O)Nc2cccnc2)C(c2ccc(C(C)C)cc2)n2ncnc2N1 (stereo not drawn)	-1%	nt	nt	nt	-0.5%
C=CCOC(=O)C1=C(C)Nc2ncnn2C1c1cc(Br)ccc1F (stereo not drawn)	17%	i	2.6e-08	i	0.8%
Cc1nc(N2CCN(c3ccccc3)CC2)nc2c1C(=O)CC(C)C2 (stereo not drawn)	nt	i	1.2e-08	i	0.5%
CCOC(=O)Cc1csc(NC(=O)CSc2ncnc3c2cnn3-c2ccccc2Cl)n1	?	i	6.1e-09	i	1.6%
COC(=O)CN1C(=O)C(O)(CC(=O)c2ccccc2)c2ccccc21 (stereo not drawn)	6%	nt	nt	nt	0.5%
Nc1ccc(OCc2ccccc2)cc1	-1%	nt	nt	nt	2.9%
CCOC(=O)c1c(C)[nH]c(C(=O)COC(=O)CCC(=O)c2ccc3c(c2)OCCO3)c1C	30%	i	8.4e-09	i	0.4%
CCN(CC)CCOc1c(Br)ccc2c1sc1nc3n(c(=O)c12)CCC3	-5%	nt	nt	nt	2.1%
CC(=O)OC1c2ccccc2C(=O)N1c1ccccc1C (stereo not drawn)	17%	nt	nt	nt	-1.5%
Cc1nc2ccc(S(=O)(=O)N(C)CC(=O)NCc3ccc4c(c3)OCO4)cc2s1	8%	i	2.5e-08	i	-0.7%
OCC1OC(c2ccc3c(c2)OCO3)C=CC1Oc1ccc(C2CCCC2)cc1 (stereo not drawn)	5%[11.4 µM]	nt	nt	nt	-0.9%[11.5 µM]
CCCCn1c(-c2ccccc2)nnc1-c1ccccc1	?	i	1e-09	i	1.8%
c1ccc2c(c1)OCC(c1nnc3sc(-c4cnccn4)nn13)O2 (stereo not drawn)	1%	i	1e-09	i	2.6%
CC1Oc2ccccc2N(CC(=O)N(Cc2ccccc2)Cc2ccccn2)C1=O (stereo not drawn)	?	i	2.1e-09	i	0.9%
O=C(O)CC1Oc2ccc(Cl)cc2NC1=O (stereo not drawn)	16%	nt	nt	nt	3.4%
CCOC(=O)N1CCN(C(=O)C(C)n2nc(C)n3c(cc4sccc43)c2=O)CC1 (stereo not drawn)	11%[11.4 µM]	i	3e-08	i	-0.8%
CCOc1cc(C(=O)NCCOC)ccc1OC	-8%	i	1e-09	i	0.8%
CCOC(=O)C(NC(C)=O)(Nc1ccc(F)cc1)C(F)(F)F (stereo not drawn)	4%	i	5e-09	i	-0.8%
CN(C)c1ccc(-c2cc(NCc3ccccc3)ncn2)cc1	19%	i	3.6e-08	i	0.3%
Nc1nc(CN2CCOCC2)cs1	1%	i	1.2e-09	i	1.0%

2 entries picked at random from the list so far, as already listed:
SMILES	TSHR agonist	A488 fluor	A647 autofl	Resorufin fluor	AID923
CC1Oc2ccccc2N(CC(=O)N(Cc2ccccc2)Cc2ccccn2)C1=O (stereo not drawn)	?	i	2.1e-09	i	0.9%
Nc1nc(CN2CCOCC2)cs1	1%	i	1.2e-09	i	1.0%

Carrying on:
SMILES	TSHR agonist	A488 fluor	A647 autofl	Resorufin fluor	AID923
Cc1cc2nc3c(nc2cc1C)C1(C(=O)O)CCC3(C)C1(C)C (stereo not drawn)	nt	i	1e-09	i	-1.3%
O=C(NC1CCCC1)C(c1ccccc1)N(C(=O)c1ccno1)c1cccnc1 (stereo not drawn)	?	i	2.4e-09	i	1.5%
CCN(CC)CCOC(=O)c1ccc(NC(=O)COc2cc(=O)n(CC)c3ccccc23)cc1	0%[11.4 µM]	i	2.7e-09	i	0.4%
CCOC(=O)c1c(NC(=O)CSc2nc3c(c(=O)n(C)c(=O)n3C)n2CC)sc(C)c1C	22%	i	3.3e-08	i	-1.1%
NC(=O)C1CCN(C(=O)N2c3ccccc3Sc3ccccc32)CC1	-5%	i	2e-08	i	-1.3%
COC(=O)N(C)CCCC1(C)C(=O)N(C)c2ccc(O)cc21 (stereo not drawn)	2%	i	4e-09	i	1.1%
CC(=O)N1CCc2cc(S(=O)(=O)NCCC(=O)Nc3cc(C)cc(C)c3)ccc21	5%	i	1e-09	i	0.4%
O=C(N1CCOCC1)C(F)(F)C(F)(F)C(F)(F)C(F)(F)C(=O)N1CCOCC1	3%	nt	nt	nt	0.1%
COCCCn1c(SCC(=O)N2CCCCC2C)nnc1-c1ccco1 (stereo not drawn)	-5%	i	2.3e-08	i	-0.9%
CCCCCSc1nncc(=O)[nH]1	7%	i	5.4e-09	i	0.0%
CCc1c(C)c(C#N)c2nc3ccccc3n2c1N(C)C	?	i	6.3e-09	i	7.8%
CCC(C(=O)NCc1ccco1)N(C(=O)CNS(=O)(=O)c1ccc(C)cc1)c1ccccc1OC (stereo not drawn)	?	i	4e-08	i	3.1%
O=C(O)c1ccccc1S(=O)(=O)NCC(O)COC1CCCCC1 (stereo not drawn)	-4%	i	1e-09	i	0.3%
O=S(=O)(c1cccc2cnccc12)N1CCNCC1	10%	nt	nt	nt	-0.7%
O=C1COc2ccc(OCc3ccc(F)cc3)cc21	14%	i	1e-09	i	-0.6%
CC(C)(CNC(=O)c1cccs1)CNC(=O)c1cccs1	?	nt	nt	nt	-0.5%
Cn1c(=O)c2c(nc(SCCN3CCOCC3)n2Cc2ccccc2)n(C)c1=O	-1%	i	1.5e-08	i	-1.8%
CC12COC3(C(=O)Nc4cccnc4)CC1CCC32C (stereo not drawn)	nt	i	3.6e-08	i	-0.3%
CC(C)C(=O)N(Cc1cc2ccccc2[nH]c1=O)C(C)C	?	i	1e-09	i	0.5%
O=C(Nc1cccc(F)c1)N1CC2(CCN(C(=O)c3csnn3)CC2)C1	3%	i	8.5e-09	i	1.9%
CCc1cc2c(=O)c(-c3nc4ccccc4n3C)coc2c(CN2CCOCC2)c1O	-1%[11.4 µM]	nt	nt	nt	0.9%
Cc1ccc(C(=O)C2=C(O)C(=O)N(CCN3CCOCC3)C2c2ccccn2)o1 (stereo not drawn)	nt	i	1.8e-09	i	nt
CCC(=O)[C@]12O[C@@]3(C4C(=O)OCCC41)N(Cc1ccccc1)C(C)=C(C(=O)OC)C(c1ccccc1)N3C2=O (stereo partly drawn)	-2%[11.4 µM]	nt	nt	nt	0.6%[11.5 µM]
CSc1nsc(SCc2ccc(F)cc2)n1	28%	i	4.6e-08	i	-2.5%
O=C(c1ccc(=O)oc1)N1CCOCC1	nt	i	1e-09	i	nt

Taken from above.
CCCCCSc1nncc(=O)[nH]1 in TSHR agonist → 7%
CCN(CC)CCOC(=O)c1ccc(NC(=O)COc2cc(=O)n(CC)c3ccccc23)cc1 in AID923 → 0.4%

Other records:
SMILES	TSHR agonist	A488 fluor	A647 autofl	Resorufin fluor	AID923
Cc1cc(O)c(C(C)C)cc1NC1=NS(=O)(=O)c2ccccc21	-3%	i	1.1e-08	i	-1.0%
CCNC(=O)CCC(=O)Nc1cc(Cl)ccc1C	?	nt	nt	nt	1.8%
CC(=O)Nc1ccc2nc(-c3ccccn3)[nH]c2c1	1%	i	4.1e-08	i	3.3%
N#Cc1cc2c(nc1SCc1nc3ccccc3[nH]1)CCC2	?	i	3.4e-08	i	6.2%
O=c1cc(CN2CCC3(CC2)OCCO3)c2c(ccc3ccccc32)o1	?	i	1e-09	i	0.7%
O=C(CN1CCc2ccccc2C1)c1cccs1	-16%	i	1e-09	i	14%
CC1CCCCC12NC(=O)N(CC(=O)NCCc1ccccn1)C2=O (stereo not drawn)	?	i	2.9e-08	i	0.5%
Cc1ccc2c(c1)nnn2C1CCN(C(=O)C2CCCCC2)CC1	?	i	3.9e-09	i	0.0%
O=C(Nc1ccc2nn(-c3ccccc3)nc2c1)c1ccc2c(c1)OCCO2	?	nt	nt	nt	8.9%
O=C(O)CNC1=NCCCCC1	-2%	i	4.7e-09	i	-2.9%
COc1ccc(C(c2nnnn2Cc2cccs2)N2CCN(c3ccc(F)cc3)CC2)cc1OC (stereo not drawn)	?	i	4.1e-08	i	-0.4%
O=C(CCCn1c(=O)c2sccc2n(CC(=O)NCc2ccco2)c1=O)NCc1ccco1	2%	i	5.8e-09	i	-0.5%
Cc1ccc(C(=O)CSC2=C(C#N)C(c3ccco3)C3=C(CC(C)(C)CC3=O)N2)cc1 (stereo not drawn)	14%	i	8.3e-09	i	-0.5%
Cn1c(N)c(C(=O)NCc2ccccc2Cl)sc1=S	-69%[inhibitor]	i	5.7e-09	i	-2.7%
CCOC(=O)C1(Cc2ccc(O)cc2)NC(c2ccco2)C2C(=O)N(c3ccccc3F)C(=O)C21 (stereo not drawn)	6%	i	4.1e-09	i	4.6%
OC1(c2cccc(C(F)(F)F)c2)CCN(c2ncnc3c2[nH]c2ccc(F)cc23)CC1	-5%	i	1.5e-09	i	-0.2%
Cc1cccc(NC(=O)COc2nsnc2N2CCOCC2)c1	2%[11.4 µM]	i	1e-09	i	1.4%
CCCCC(=O)C1CCN(Cc2ccccc2)CC1	nt	i	3.7e-09	i	nt
CC(C)NC(=O)CN(C(=O)CCC(=O)Nc1ccccn1)c1ccc(F)c(Cl)c1	0%	i	4.9e-09	i	0.5%
CCOC(=O)C1CCN(C(=O)CCn2c(=O)[nH]c3ccsc3c2=O)CC1	3%	i	6.5e-09	i	1.2%
Cc1nc(C)c(C(=O)C2=C(O)C(=O)N(CCN3CCOCC3)C2c2ccco2)s1 (stereo not drawn)	nt	i	1e-09	i	10%
O=c1[nH]c(N2CCc3ccccc32)nc2c1CCCC2	-7%	i	1e-09	i	0.9%
CCN1C(=O)N[C@@H](c2ccccc2)C1=O	13%[25.6 µM]	i	5.7e-09	i	-0.2%[25.7 µM]
CCC(=O)Nc1c(C)c(CC)nc2ccccc12	0%[11.4 µM]	i	4.5e-09	i	-1.5%
COc1ccc(CN2CC(C(=O)NCCCN3CCOCC3)CC2=O)cc1 (stereo not drawn)	0%	i	4.5e-08	i	0.1%

Structural class: the entries above with a cyano group.
SMILES	TSHR agonist	A488 fluor	A647 autofl	Resorufin fluor	AID923
N#CC1=C(N)C(C#N)(C#N)[C@H](c2c(F)cccc2F)[C@H]2CC3(CC=C12)OCCO3	2%	i	1.3e-08	i	9.1%
CCc1c(C)c(C#N)c2nc3ccccc3n2c1N(C)C	?	i	6.3e-09	i	7.8%
N#Cc1cc2c(nc1SCc1nc3ccccc3[nH]1)CCC2	?	i	3.4e-08	i	6.2%
Cc1ccc(C(=O)CSC2=C(C#N)C(c3ccco3)C3=C(CC(C)(C)CC3=O)N2)cc1 (stereo not drawn)	14%	i	8.3e-09	i	-0.5%

Carrying on.
SMILES	TSHR agonist	A488 fluor	A647 autofl	Resorufin fluor	AID923
C[C@H](CN(C)C)C(=O)c1ccccc1C(=O)O	-1%[11.4 µM]	i	3.8e-08	i	-0.1%[11.5 µM]
Cc1ccc(NC(=O)C2CCCN(S(=O)(=O)c3cnc[nH]3)C2)cc1C (stereo not drawn)	3%	nt	nt	nt	-2.5%
COc1ccc(C(c2sc3nc(C)nn3c2O)N2CCN(CCO)CC2)cc1OC (stereo not drawn)	0%	nt	nt	nt	5.8%
Cc1cc(NC(=O)Nc2ccc(N(C)C)cc2)c2cc(F)cc(F)c2n1	-14%	nt	nt	nt	-1.0%
Cc1ccc(NC(=O)CSc2nnc(C3CCCCC3)n2N)cc1F	2%	i	1e-09	i	-2.0%
CCNc1nc(NC(C)C)nc(N(C#N)Cc2ccccc2)n1	24%	i	4.5e-08	i	0.7%
